# High-throughput results: PubChem, Emory University Molecular Libraries Screening Center
# Measles inh = inhibitors of measles virus growth in infected cells. infected Vero cells, GFP fluorescence, 64 h; stronger effect = lower value. z-score (no concentration beside the values). 33,000 tested, 0.1% active. AID 745;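 active means z-score under -3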;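 further: score is relative to mean and SD of the compound wells of a plate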
# Starred values were filed as active, the others as inactive. Not all compounds are listed; count on the stated rates, not on these rows.
cpd	molecule	Measles inh
1	O=C(c1ccccc1Cl)N1CCN(C2=NS(=O)(=O)c3ccccc32)CC1	0.6
2	Cc1ccccc1C(=O)N1N=C(c2ccc(NS(C)(=O)=O)cc2)CC1c1ccco1 (configuration not stated)	0.35
3	Cc1cc(NC(=O)C2CCN(S(=O)(=O)c3cccnc3)CC2)ccc1Br	-0.04
4	O=C(NC1(C(F)(F)F)NC(=O)N(Cc2ccco2)C1=O)c1ccccc1F (configuration not stated)	-0.29
5	O=C(NCc1ccccn1)c1ccc(CNS(=O)(=O)c2ccc(Br)cc2)cc1	1.3
6	O=C(COc1ccc(Cl)cc1)N1CCN(Cc2ccc3c(c2)OCO3)CC1	-0.33
7	CC(C)CCNC(=O)c1c(O)c2cccc3c2n(c1=O)CCC3	-0.64
8	Cc1ccc2c(c1)C(c1ccc(F)cc1)N(C(=O)c1ccc3c(c1)OCO3)CC(=O)N2 (configuration not stated)	-0.4
9	CCc1ccc2cc(-c3ccc(Cl)cc3)cn2c1	-0.98
10	O=C(NCc1ccc(F)cc1)c1cc(=O)n(Cc2ccc(Cl)cc2)c2ccccc12	-0.39
11	CCSc1nnc(NC(=O)CSc2nc(C)cc(C)n2)s1	-0.29
12	O=C(CCNS(=O)(=O)c1cccs1)Nc1nccs1	1.9
13	CCOc1ccc(N(CC(=O)N2CCC(C)CC2)S(=O)(=O)c2ccc(C)cc2)cc1	0.01
14	CC1(C)Cc2[nH]ccc2C(C)(C)N1	1.1
15	COc1ccc(/C(O)=C2\C(=O)C(=O)N(Cc3ccncc3)C2c2ccc(OC)cc2)cc1 (configuration not stated)	-1.2
16	CCCn1cnc2sc(C(=O)Nc3ccc(Oc4ccc(Cl)cc4)cc3)c(C)c2c1=O	-0.92
17	Cc1ccc(-c2cc(C(=O)Nc3cc(C(=O)O)ccc3C)c3ccccc3n2)cc1	-0.14
18	CCOC(=O)C(C(=O)N1CCCc2ccccc21)C1CCCCC1 (configuration not stated)	-0.16
19	COc1cccc(C(=O)Nc2cc(-c3nc4ccccc4[nH]3)ccc2C)c1	-0.73
20	O=C(CN1C(=O)c2ccccc2Sc2ccc(C(=O)N3CCCC3)cc21)NCCc1ccccc1	-0.53
21	O=C(Nc1cccc(Cl)c1)c1cc(S(=O)(=O)N2CCOCC2)ccc1F	0.73
22	Cc1cc(C2Nc3ccc(C(=O)c4ccccc4)cc3NC3=C2C(=O)CC(C)(C)C3)cc(C)c1O (configuration not stated)	0.12
23	O=C1C(Cl)=C(N(Cc2ccccc2)Cc2ccccc2)C(=O)N1c1ccc(Cl)cc1	0.13
24	CCN1CCCc2cc(O)ccc21	0.31
25	CCc1ccc(-c2csc(NC(=O)C3C4CCC(C4)C3C(=O)O)n2)cc1 (configuration not stated)	0.16
26	COc1ccc(OC(=O)c2cccc([N+](=O)[O-])c2)c(C(C)=O)c1	0.01
27	Cc1ccc(CN2C(=O)CCC2C(=O)NC2CCCC2)cc1 (configuration not stated)	0.95
28	Cc1ccccc1Oc1ccc(S(=O)(=O)NC(C)C(=O)O)cc1 (configuration not stated)	-1.9
29	CCOc1ccc(C(=O)N2CC(=O)Nc3ccc(C)cc3C2c2ccccc2)cc1 (configuration not stated)	-1.3
30	CCOC(=O)C1=C(C)NC(=O)CC1c1cccc([N+](=O)[O-])c1 (configuration not stated)	0.22

# Three entries from above, with each value named:
(6) O=C(COc1ccc(Cl)cc1)N1CCN(Cc2ccc3c(c2)OCO3)CC1
  Measles inh = -0.33

(22) Cc1cc(C2Nc3ccc(C(=O)c4ccccc4)cc3NC3=C2C(=O)CC(C)(C)C3)cc(C)c1O (configuration not stated)
  Measles inh = 0.12

(15) COc1ccc(/C(O)=C2\C(=O)C(=O)N(Cc3ccncc3)C2c2ccc(OC)cc2)cc1 (configuration not stated)
  Measles inh = -1.2

# The list continues.
cpd	molecule	Measles inh
31	CCSc1nnc(NC(=O)NC(C(F)(F)F)C(F)(F)F)s1	-0.56
32	Cc1ccc(-c2noc(-c3ccccc3O)n2)cc1	-0.4
33	Cc1ccc2oc(-c3ccc(NC(=O)c4cccc(F)c4)c(C)c3)nc2c1	-0.68
34	CCOC(=O)c1c(NC(=O)c2cccc(F)c2)sc2c1CCC(C(C)(C)C)C2 (configuration not stated)	-0.94
35	N#Cc1nonc1N	-0.19
36	COc1ccc(NC(=O)CSc2nncn2C)cc1	0.95
37	O=C(O)c1ccc(C(=O)O)c(C(=O)c2ccccc2)c1	-0.14
38	CCOC(=O)CSc1ccc(C(=O)O)cc1[N+](=O)[O-]	1.6
39	Cn1c(SCC(=O)N2CCCC2)nnc1-c1c[nH]c2ccccc12	-1.2
40	COc1ccc(S(=O)(=O)Nc2c(C)cc(O)c(S(=O)(=O)c3ccc(Cl)cc3)c2C)cc1	0.64
41	CCCCNc1nc(SCc2cc(C(C)=O)ccc2OC)nc2ccccc12	-1.9
42	O=C(c1nn2c(c1Cl)NC(c1ccccc1)CC2C(F)(F)F)N1CCCCC1 (configuration not stated)	0.28
43	CC(=O)c1ccc(C(=O)Nc2nc3c(s2)CCCC3)cc1	-0.92
44	CC1Cc2nc(SCC(=O)N3CCCc4ccccc43)n(Cc3ccccc3)c(=O)c2S1 (configuration not stated)	-0.37
45	CCOC(=O)c1c(C)n(-c2ccc(Cl)cc2)c2ccc(OC)cc12	-0.17
46	CN(C)CCCNC(=O)C1(O)c2cc(Br)ccc2NC(=O)N1c1ccc(Cl)cc1 (configuration not stated)	-1.2
47	CCSCCOC(=O)C1=C(C)NC(=O)NC1c1cc(Br)ccc1OC (configuration not stated)	-0.84
48	Cc1cccc(Nc2nc(-c3ccc(Br)cc3)cs2)c1	-0.24
49	Cc1ccc(-n2nc3c(c2NC(=O)c2cccc([N+](=O)[O-])c2)CS(=O)(=O)C3)cc1	0.25
50	CCOC(=O)c1cnc2cc(Cl)c(OC)cc2c1Nc1ccc(C)cc1Br	1.2
51	CCCn1cc(S(=O)(=O)CC(=O)Nc2ccccc2C(F)(F)F)c2ccccc21	0.26
52	O=C(Nc1ccccc1N1C(=O)c2ccccc2C1=O)c1cc2nc(-c3cccs3)cc(C(F)(F)F)n2n1	-0.45
53	CN(C(=O)CCSc1nc(-c2ccc3c(c2)OCO3)cc(C(F)(F)F)n1)C1CCCCC1	-0.32
54	COC(=O)c1ccc(C(=O)Nc2ccc3c4c(cccc24)CC3)cc1	0.48
55	COc1ccc2c(=O)c(-c3ccc4c(c3)OCCO4)coc2c1	0.04
56	O=S1(=O)N=C(N2CCCCC2)c2ccccc21	2.6
57	Cc1cc2nc(-c3cc(NC(=O)c4ccccc4Cl)ccc3O)oc2cc1C	-0.06
58	O=C(Nc1cccc(Cl)c1)N1c2ccccc2Sc2ccccc21	0.5
59	CCSc1nnc2c(n1)OC(c1ccccc1)Nc1ccc(Br)cc1-2 (configuration not stated)	0.82
60	CCCn1c(C)nc2c(=O)oc3ccccc3c21	-0.22
61	CCOC(=O)c1c(NC(=O)c2ccccc2C)sc(C(=O)NC2CCCCC2)c1C	0.45
62	O=C(c1ccccc1)N1CCN(Cc2ccccn2)CC1	0.33
63	CC1=C(C(=O)Nc2nc3ccccc3s2)C(c2cccc(Br)c2)C2=C(CC(C)(C)CC2=O)N1 (configuration not stated)	-1.6
64	CCOC(=O)c1sc(NC(=O)c2cc(OC)c(OC)c(OC)c2)nc1C	0.35
65	COc1ccc(CN2CCN(Cc3ccncc3)CC2)cc1OC	0.76
66	Cc1cccc(NC(=O)c2cc3c(ccc4ccccc43)oc2=O)n1	0.57
67	Cc1cc2cc(CCNC(=O)c3ccc([N+](=O)[O-])cc3)c(=O)[nH]c2cc1C	0.72
68	COC(=O)c1sc(NC(=O)c2c(-c3ccccc3)noc2C)c(C(=O)OC)c1C	1.9
69	O=C(O)CCc1nn2c3ccccc3nc2n(CCN2CCCCC2)c1=O	0.77
70	COc1ccc(CN2CCC(=O)NC2=O)cc1	-0.07

# Looked up above:
# Measles inh with `CCOC(=O)c1sc(NC(=O)c2cc(OC)c(OC)c(OC)c2)nc1C` → 0.35
# Measles inh with `Cc1cc2cc(CCNC(=O)c3ccc([N+](=O)[O-])cc3)c(=O)[nH]c2cc1C` → 0.72

# Next records follow.
cpd	molecule	Measles inh
71	Cc1ccc(-c2nn3c(=O)c4ccccc4nc3c3ccccc23)cc1C	-0.07
72	CCOC(=O)c1c(-c2ccccc2)csc1NC(=O)CSc1cc(C)c2ccccc2n1	1.4
73	c1ccc(Cn2c3ccccc3n3nc(-c4ccccc4)nc23)cc1	-1.4
74	S=c1[nH]nc(CCc2ccccc2)n1Cc1ccccc1	-0.4
75	Cc1cc(SCc2ccccc2)n2ncnc2n1	-0.78
76	O=S(=O)(N=C(Nc1cccc2ccccc12)c1ccccc1)c1ccc(Cl)cc1	0.09
77	Cc1ccc(Cn2c(=O)n(-c3cccc(C)c3)c(=O)c3ccccc32)cc1	-0.59
78	CCCCCCc1cc2c(C(F)(F)F)cc(=O)oc2cc1OC(C)=O	0.8
79	OCCn1c(-c2ccc(I)cc2)csc1=Nc1cccc(Cl)c1	-0.1
80	Cc1nc2nc(SCC(=O)NCc3cccs3)nn2c(C)c1Cc1ccccc1	-0.4

# Screen by screen, quoted from above:
# Entries 71–75 in Measles inh: -0.07, 1.4, -1.4, -0.4, -0.78

# Further structures follow.
cpd	molecule	Measles inh
81	CC(=O)N1N=C(c2ccc(Br)cc2)CC1c1ccc(N(C)C)cc1 (configuration not stated)	-0.11
82	O=C(c1cccc(Oc2c(Cl)cccc2[N+](=O)[O-])c1)N1CCCCC1	-0.01
83	O=C(CCCn1c(=S)[nH]c2ccccc2c1=O)Nc1cccc2c1CCCC2	2.1
84	CN(C)c1ccc(NC(=O)CCN2C(=O)c3ccccc3C2=O)cc1	2
85	CCSc1nc2c(c(=O)[nH]1)C(c1ccc(OC)c(OC)c1)C1=C(CC(C)(C)CC1=O)N2 (configuration not stated)	-0.72
86	CCN(c1ccccc1)S(=O)(=O)c1ccc(F)c(C(=O)Nc2c(C)cc(C)cc2C)c1	-1.6
87	O=C(Nc1ccc(O)c(-c2nc3ccccc3s2)c1)c1cccc(Br)c1	1.7
88	COc1ccc(-c2cn(-c3cccc(SC)c3)c(=O)[nH]2)cc1	0.75
89	N/C(=N\c1nc2ccccc2o1)NC(=O)c1ccccc1[N+](=O)[O-]	0.2
90	COC(=O)C1(S(=O)(=O)c2cccc3nsnc23)CC1	0.17
91	Cc1nnc2n1N=C(c1ccc(F)cc1)CS2	0.58
92	O=C(NCCN1CCOCC1)c1cc(-c2ccc(F)cc2)nc2ccc(Br)cc12	-1
93	CCOc1ccc(C2C(C(=O)Nc3ccc(Cl)cc3)=C(C)Nc3ncnn32)cc1OC (configuration not stated)	-0.59
94	O=C(Nc1nc(-c2ccccc2)cs1)c1cc2cc(Br)ccc2oc1=O	-0.1
95	O=C1C2C3C=CC(C3)C2C(=O)N1Cc1ccco1 (configuration not stated)	0.82
96	O=C(c1ccc(F)cc1)N1CCN(S(=O)(=O)c2ccc(Br)cc2)CC1	0.27
97	CCCCOc1ccc(C(=O)Nc2nc3ccc(Cl)cc3s2)cc1	0.04
98	CCCC1=C(C(=O)OCC)C(c2ccc(Cl)cc2)n2ncnc2N1 (configuration not stated)	-0.58
99	CCSc1nnc(N2C(=O)c3ccc([N+](=O)[O-])cc3C2=O)s1	1.1
100	CSc1cccc(NC(=O)C2C3C=CC4(O3)C2C(=O)N(C2CCCCCC2)C4C(=O)NC2CCCCC2)c1 (configuration not stated)	0.56
101	CCOC(=O)c1[nH]c2ccc(F)cc2c1NC(=O)CNc1nccs1	1.2
102	CCOC(=O)c1cc2c(=O)n3ccccc3nc2n(Cc2ccco2)c1=NC(=O)c1cccc(F)c1	0.61
103	S=c1nc2ccccc2c2nc(COc3ccccc3Br)[nH]n12	0.04
104	CCCOc1ccc(N2C(=O)CC(N3CCN(c4ccc(Cl)cc4)CC3)C2=O)cc1 (configuration not stated)	-0.09
105	O=C(Nc1cccc(Br)c1)c1cccc(S(=O)(=O)N2CCCCCC2)c1	-0.46
106	COc1ccc([N+](=O)[O-])cc1NC(=O)CC(c1ccccc1)c1ccccc1	-0.73
107	COc1ccc(C2CC(=O)C3=C(C2)NC(C)=C(C(=O)Nc2ccccc2C)C3c2cc(OC)c(O)c([N+](=O)[O-])c2)cc1OC (configuration not stated)	-0.31
108	O=C(O)CCc1ccc(-c2cccs2)n1-c1ccc(O)cc1	0.75
109	CCCOC(=O)CSc1ncnc2sc3c(c12)CCC(C)C3 (configuration not stated)	1.6
110	CC1=C(C(=O)OC(C)C)C(c2ccc(F)cc2)C(C(=O)OC(C)C)=C(C)N1	-0.02
111	O=C(Cn1nc(-c2ccccc2)ccc1=O)NCCCN1CCOCC1	0.26
112	C=CCn1c(SCC(=O)NCCc2ccccc2)nc2sc3c(c2c1=O)CCC3	0.76
113	O=C(Nc1ccccc1Br)c1cc(S(=O)(=O)NC2CCCCCC2)ccc1F	0.72
114	O=C(O)CC(NS(=O)(=O)c1cccc([N+](=O)[O-])c1)c1ccccc1 (configuration not stated)	1.1
115	COc1ccc(C2NC(=O)NC(C)=C2C(=O)Nc2ccccc2)cc1 (configuration not stated)	1.2
116	COc1ccc(C2CC(c3c(-c4ccccc4)c4cc(Cl)ccc4[nH]c3=O)=NN2C(=O)CCC(=O)O)cc1 (configuration not stated)	-0.07
117	Cc1ccc(-c2noc(CN3CCCCC3)n2)cc1	1.5
118	Cc1cc(C)cc(NC(=O)c2cc(S(=O)(=O)N3CCc4ccccc43)ccc2F)c1	-0.48
119	O=[N+]([O-])c1ccc2oc(C=Cc3ccc(O)cc3)nc2c1	0.66
120	COc1cccc(-n2c(=O)c3sccc3n(CC(=O)c3ccccc3)c2=O)c1	1.3
121	CC(O)c1nc2ccccc2n1Cc1ccccc1 (configuration not stated)	0.27
122	Cc1occc1C(=O)N1N=C(C2CC2)CC1(O)C(F)(F)F (configuration not stated)	-0.7
123	CCOC(=O)CC(=O)CSc1nc(-c2cccs2)ccc1C#N	-0.26
124	Cc1nn(C)c(C)c1S(=O)(=O)N1CCCC(C(=O)NC2CCCCC2)C1 (configuration not stated)	0.74
125	CC1=C(C(=O)OC2CCCCCCC2)C(c2ccc(Cl)cc2)NC(=O)N1 (configuration not stated)	1.4
126	O=C(NCCc1c[nH]c2ccccc12)c1cnc2n(c1=O)CCS2	-0.28

# A second format for two compounds above.
124	Cc1nn(C)c(C)c1S(=O)(=O)N1CCCC(C(=O)NC2CCCCC2)C1 (configuration not stated)
- Measles inh: 0.74

125	CC1=C(C(=O)OC2CCCCCCC2)C(c2ccc(Cl)cc2)NC(=O)N1 (configuration not stated)
- Measles inh: 1.4
